# Screening data: PubChem BioAssay, several laboratories
# PABP FP inh: PABP-poly(A) binding inhibition. P11940. PABP-poly(A) RNA binding, fluorescence polarization. inhibition, % at 35 µM. actives 1% (n = 290,000);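 active = 50% or more with normal probe brightness, or confirmed in later tests; inconclusive = above 50% with abnormal brightness, or retests that disagree; inactive = below 50% or failed in later tests; about a fifth of its hits are not listed in these tables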;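 note: calls also rest on retests at 20 µM and on dose response follow-up; controls were probe without protein and protein plus probe with vehicle; some compounds called inactive have numbers as strong as hits; many hits fall short of the cut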
# Target sequence (P11940 whole entry, looked up): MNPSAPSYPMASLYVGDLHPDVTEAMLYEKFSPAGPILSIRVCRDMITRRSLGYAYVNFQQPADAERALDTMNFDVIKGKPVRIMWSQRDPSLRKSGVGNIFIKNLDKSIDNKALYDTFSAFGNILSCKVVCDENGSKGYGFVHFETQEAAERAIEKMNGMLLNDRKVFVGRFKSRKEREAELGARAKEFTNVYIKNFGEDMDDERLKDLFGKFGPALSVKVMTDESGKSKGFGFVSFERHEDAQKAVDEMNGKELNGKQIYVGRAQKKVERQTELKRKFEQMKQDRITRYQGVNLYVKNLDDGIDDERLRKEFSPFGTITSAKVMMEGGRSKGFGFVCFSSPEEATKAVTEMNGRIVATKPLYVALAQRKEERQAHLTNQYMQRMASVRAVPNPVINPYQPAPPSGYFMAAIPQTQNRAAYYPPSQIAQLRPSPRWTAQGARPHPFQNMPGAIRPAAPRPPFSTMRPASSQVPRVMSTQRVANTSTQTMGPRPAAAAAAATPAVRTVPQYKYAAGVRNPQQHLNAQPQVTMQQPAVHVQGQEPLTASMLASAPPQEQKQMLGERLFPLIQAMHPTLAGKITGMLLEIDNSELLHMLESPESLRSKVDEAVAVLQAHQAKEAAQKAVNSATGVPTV
# MT1-MMP act inh: blocks activation of human MT1-MMP; GFP/RFP ratio change, % at 20 µM; HT1080 RFP-PRO-GFP cells, GFP/RFP ratio fluorescence, overnight; percent of plate control window, DMSO zero; actives 0.061% (n = 360,000); AID 651647; P50281;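 active = GFP/RFP ratio change of at least 30% with cell ATP level not reduced by more than half and red fluorescence within 50% of control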; note: strong numbers were not always called active
#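 Read-out: GFP/RFP fluorescence ratio; Test system: RFP-PRO-GFP reporter HT1080 cells; Compound dosing: single-point 20 µM compound, 1% DMSO; Times: overnight compound exposure at 37 °C.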
# CSC inhib: blocks cancer stem cells. cancer stem cell-like cells viability, luminescence. actives 1.1% (n = 300,000). AID 2717. inhibition, % at 7.5 µM;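 active = mean at 75% or more and at least half the replicates too; inconclusive = mean and replicates disagree; tested in HMLE shEcad cells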;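 note: 0% = median of negative and 100% = median of positive control wells; the first replicate is given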
# eIF4H FP inh: inhibitors of RNA binding by human eIF4H; Q15056; eIF4H fluorescence polarization binding assay; inhibition, % at 35 µM; actives 0.94% (n = 290,000);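 active = 50% or more with normal probe brightness, or confirmed in later tests; inconclusive = above 50% with abnormal brightness, or retests that disagree; inactive = below 50% or failed in later tests; about a fifth of its hits are not listed in these tables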;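 note: calls also rest on retests at 20 µM and on dose response follow-up; 0% = protein and probe with vehicle and 100% = probe without protein; strong numbers were not always called active; many hits fall short of the cut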
# HIV Env fusion: blocks HIV Env-driven cell-cell fusion. actives 1.1% (n = 360,000). inhibition, % at 12.3 µM. HeLa-JRFL Env/CEM21 cell fusion, luciferase;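 active = mean replicate inhibition score of at least 50 and every replicate individually at or above 50; inconclusive = only one of the two criteria met; inactive = mean below 50 and not all replicates reaching 50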;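 note: 0% = plate neutral controls and 100% = maraviroc near 300 nM; one replicate is shown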
# Yeast UUG start: modulators of start codon recognition fidelity in yeast | activity score, % at 18.7 µM | S. cerevisiae UUG-firefly luciferase reporter, luminescence/redox ratio | actives 0.13% (n = 350,000);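 active = replicate mean at a twofold rise or more, about +100% in these data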;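 note: firefly luciferase made from a UUG start codon reports start codon fidelity; reporter light over untreated wells divided by growth signal over untreated wells; some hits fall short of that in this replicate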
# Rce1 inhib: blocks yeast Ras-converting enzyme. Q03530. yeast membranes, quenched prenylated peptide cleavage fluorescence. calls only. actives 0.27% (n = 290,000);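 active = fall in fluorescence gain of 50% or more versus controls, with final raw signal at or below 3038400; inconclusive = same 50% fall but final raw signal above 3038400; inactive = fall in fluorescence gain under 50%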;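 note: plate controls were neutral control wells for no effect and wells lacking membranes for full effect; tested at 10 µM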
# MT1-MMP act inh RFP: also measured in MT1-MMP act inh; calls as there; RFP signal change, %; measured here: RFP expression control read;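 0 = vehicle wells; hits needed this value within 50% of zero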
# The depositor's hits bear a star; i = inactive; u = inconclusive; x = not tested or not shown. Only part of the results is shown; rates above refer to the full screens.
SMILES,PABP FP inh,MT1-MMP act inh,MT1-MMP act inh RFP,CSC inhib,eIF4H FP inh,HIV Env fusion,Yeast UUG start,Rce1 inhib
N#CC[N+]1(CCCNP2(=O)C=C(c3ccccc3)OC(c3ccccc3)=C2)CCOCC1,-2,-1,1,-7,7,4,x,i
O=C(/C=C/c1ccc(Br)cc1)NC(=S)N1C[C@H]2C[C@H](C1)c1cccc(=O)n1C2,3,2,3,1,0,x,-25,i
c1ccc2c(CNC3CCCCCC3)c[nH]c2c1,-1,-1,-4,3,-8,x,-7,x
Cc1cc(C=O)c(C)n1C(C)C,10,-2,-4,-5,-6,2,x,i
Cc1nc2ccc(P(=O)(O)O)cc2s1,7,x,x,-4,-2,x,x,i
C=CCn1c(O)c(C(CC)=NC(C)c2ccccc2)c(=O)[nH]c1=O (configuration not stated),-3,13,3,2,5,-90,6,i
COc1c(C)cc(C(=O)C2CCCN(Cc3cnc(C)s3)C2)cc1C (configuration not stated),-1,5,4,-6,-14,8,x,i
CCN1C[C@@]2(COC)C3[C@@H](OC)[C@H]4[C@@H]1[C@@]3(C1C[C@H]3[C@H](O)C1[C@]4(O)C[C@H]3OC)[C@@H](OC)C[C@H]2O (some centres not stated),x,2,3,-13,x,x,-13,i
CNP1(NC)=NC(C(F)(F)F)=NC(C(F)(F)F)=N1,30,-3,6,1,9,x,x,i
C/C(=C/C=C/[C@@H](C)C(=O)O)[C@H]1CN[C@H](C(=O)O)[C@H]1CC(=O)O,9,10,2,-4,23,x,8,x
Cn1c2ccccc2c2c(C(=O)N3CCC4(CC3)OCCO4)cn(C3CCCC3)c(=O)c21,-7,5,4,12,17,x,-3,i
COc1ccc(NC2=NCC(C)S2)cc1 (configuration not stated),-3,1,-4,-8,3,-7,1,i
C=C(C)[C@@]12OC3(c4ccccc4)O[C@@H]1C1[C@@H]4O[C@]4(CO)[C@@H](O)[C@]4(O)C(=O)C(C)=C[C@H]4[C@@]1(O3)[C@H](C)[C@H]2OC(=O)/C=C/C=C/c1ccccc1 (some centres not stated),x,-18,-22,6,x,x,6,i
CCCCCSc1cc(O)c(C(CNC)C(C)C)cc1OC (configuration not stated),-8,3,-1,-4,-3,15,-6,i
O=C1NC(=O)C(=Cc2ccsc2)C(=O)N1,-9,-1,3,2,13,15,4,i
CCCCSP1(=S)NCCCN1,-3,1,5,-2,7,x,-13,i
Nc1c(C(=O)OCc2ccccc2)c2nc3ccccc3nc2n1Cc1cccs1,4,-20,-3,70,-2,9,-11,i
CCOP(=S)(OCC)SCOC(=O)NCC(=O)OC,-6,0,8,-2,-1,x,0,i
COc1cc2c(c(OC)c1OC)-c1ccc(O)cc1C(NC(C)=O)CC2 (configuration not stated),x,14,2,x,x,-130,-4,x
O=C(COc1ccc(Cl)cc1)NC1CN2CCC1CC2 (configuration not stated),3,0,1,-10,1,x,-18,i
CCCC(=O)c1ccc(CP(=O)(OCC)OCC)o1,8,-4,4,21,5,-3,-11,i
CCCCCn1c(=O)c(C(=O)NCc2ccccc2Cl)c(O)c2ccccc21,-3,2,-19,4,8,-11,-18,i
CC(C(=O)c1ccc(Cl)cc1Cl)n1cncn1 (configuration not stated),5,1,4,1,-10,-2,8,i
CC1(O)CCN2C(=O)CCc3cccc1c32 (configuration not stated),x,-13,0,x,x,26,-25,x
COC(=O)C1=C(c2ccc3ccccc3c2)C[C@@H]2CC[C@H]1N2C(=O)N1CCC(O)CC1,x,3,-5,-7,x,x,-10,x
SMILES,PABP FP inh,MT1-MMP act inh,MT1-MMP act inh RFP,CSC inhib,eIF4H FP inh,HIV Env fusion,Yeast UUG start,Rce1 inhib
O=C(Cc1cccc(C(F)(F)F)c1)N1CCN(CC(=O)N2CCCC2)CC1,x,-2,3,-16,x,6,-17,x
O=C(NN=Cc1ccc(N(CCCl)CCCl)cc1)c1cccnc1,x,6,0,x,x,-15,-20,x
CCC1=C(C)C(N2CCOCC2)=NP(N2CCOCC2)(N2CCOCC2)=N1,-4,-7,2,-2,-9,-23,1,i
Cn1c(=O)c2c(nc(N/N=C/c3c(O)n(C4CCCCC4)c(=S)[nH]c3=O)n2C)n(C)c1=O,-12,6,4,-6,38,6,x,i
CCOC(=O)C(O)(c1ccc(N(CC)S(=O)(=O)c2ccccc2)cc1)C(F)(F)F (configuration not stated),8,3,-1,-3,7,x,-1,i
CC1COC2N=C(N[N+](=O)[O-])NC2O1 (configuration not stated),-14,2,1,25,4,-8,x,i
CC(C)c1cc(Br)c(NC(=O)Nc2cccnc2)c(Br)c1,1,4,7,-5,-2,-5,-10,i
CN(C)CCCNCC(=O)Nc1ccc(Cl)cc1C(=O)c1ccccc1,3,8,9,13,2,-7,x,i
CCC(C)C1NC(=O)C(C(C)=O)=C1O (configuration not stated),18,2,6,-1,10,x,-11,i
O=c1cccc2n1CC1CNC[C@H]2C1,x,-1,8,-7,x,9,-34,x
O=S(=O)(c1ccc(O)cc1)c1ccc(O)cc1,-1,3,2,6,-4,-10,-3,i
Oc1c(Br)cc(Br)cc1Oc1ccc(Br)cc1Br,11,x,x,108*,14,x,x,i
CN(C)CC1CSCCC1(O)c1cccc(Cl)c1 (configuration not stated),-8,2,2,12,4,-8,-7,i
C#CCCC[C@@H]1OC(=O)CNC(=O)C([C@@H](C)CC)NC(=O)[C@@H]2CCCN2C(=O)C([C@@H](C)CC)OC(=O)[C@H](Cc2ccccc2)N(C)C(=O)[C@H](C(C)C)NC(=O)C1(C)C (some centres not stated),x,0,-21,x,x,0,8,x
O=[N+]([O-])c1cc(-c2ccc([As](=O)(O)O)cc2)ccc1[As](=O)(O)O,u,x,x,2,u,x,x,i
C=CCC1C(=O)NC(=S)NC1=O,-7,-2,7,3,-3,-27,x,i
Nc1ccc(C2(c3ccc(N)cc3)c3ccccc3-c3ccccc32)cc1,-11,4,1,63,2,5,x,x
COC(=O)C1=C(c2ccccc2)C[C@@H]2CC[C@H]1N2C(=O)NC1CCCCC1,x,3,1,-6,x,2,3,i
CC(C)Oc1cccnc1N(C)C1CCN(Cc2ccccc2)CC1,x,2,4,x,x,-25,-19,x
COC(=O)C1=C(c2ccc(Cl)c(C(F)(F)F)c2)C[C@@H]2CC[C@H]1N2C(=O)NCCOc1ccc(OC)cc1,x,17,-7,19,x,x,1,x
O=C1C2CCCC1C(N1CCCCC1)CC2 (configuration not stated),2,1,2,-3,0,-105,9,i
COc1ccc(C(c2nnnn2-c2c(C)cccc2C)N2CCC(n3c(=O)[nH]c4ccccc43)CC2)cc1 (configuration not stated),x,-6,-10,x,x,29,2,x
Nc1ccc(Cl)cc1C(=O)c1ccccc1,-18,0,5,x,-4,14,x,i
NNc1n[nH]c(=S)n1N,6,1,9,-9,0,-4,-4,i
Cc1ccsc1C(=O)C1CCCN(Cc2ccc(-n3cccn3)cc2)C1 (configuration not stated),-8,4,-6,-5,5,12,x,i
SMILES,PABP FP inh,MT1-MMP act inh,MT1-MMP act inh RFP,CSC inhib,eIF4H FP inh,HIV Env fusion,Yeast UUG start,Rce1 inhib
Cc1ccc(-c2nc3ccccc3c(=O)n2-n2cccc2)cc1,7,0,-1,16,0,x,-16,i
CSc1ncc(CN2CCCC(C(=O)c3cccc(Cl)c3)C2)cn1 (configuration not stated),-1,-2,3,-11,6,6,-18,i
O=C(CN1CCCCC1)c1ccc(OC(F)F)cc1,6,-1,2,-13,14,2,-8,i
O=C1NC(=O)N(Cc2ccco2)C(=O)/C1=C\c1cccn1CCOc1ccc(Cl)cc1,-1,-20,0,37,u,-9,x,i
COC(=O)C1=C(c2ccc(-c3ccccc3)c(F)c2)C[C@@H]2CC[C@H]1N2C(=O)NC1CC1,x,-1,-25,-7,x,15,2,x
COC(=O)C1=C(c2ccc3ccccc3c2)C[C@@H]2CC[C@H]1N2C(=O)NC(C)C,x,12,1,-7,x,-10,-10,x
COCCNC(=S)N1Cc2ccccc2-n2nncc2C1,x,1,1,x,x,-13,-23,x
COc1cccc2cc(-c3cc(=O)oc4ccc(OC(=O)N(C)C)cc34)oc12,4,1,-2,11,-4,5,-17,i
O=P1(NCc2ccco2)COc2ccccc2OC1,4,x,x,-10,-2,-30,-6,i
CC/C(=N\Nc1ccccc1)c1c(O)n(-c2ccccc2)c(=O)[nH]c1=O,1,5,10,u,-6,2,1,i
COCCN1C(=O)/C(=C/c2c(OC)cc(OC)cc2OC)C(=O)N(c2ccccc2)C1=O,u,-7,0,13,u,3,10,i
OC12CCCCC1C(c1ccccc1)NCC2 (configuration not stated),-7,2,1,-7,6,-24,-5,i
O=c1[nH]c(=O)n(Cc2ccco2)c(O)c1C=NCc1ccc2c(c1)OCO2,18,-2,-1,6,4,-32,-22,i

# Exported tab-delimited: entries from further up
SMILES	PABP FP inh	MT1-MMP act inh	MT1-MMP act inh RFP	CSC inhib	eIF4H FP inh	HIV Env fusion	Yeast UUG start	Rce1 inhib
O=C1C2CCCC1C(N1CCCCC1)CC2 (configuration not stated)	2	1	2	-3	0	-105	9	i
COc1ccc(C(c2nnnn2-c2c(C)cccc2C)N2CCC(n3c(=O)[nH]c4ccccc43)CC2)cc1 (configuration not stated)	x	-6	-10	x	x	29	2	x
Nc1ccc(Cl)cc1C(=O)c1ccccc1	-18	0	5	x	-4	14	x	i
NNc1n[nH]c(=S)n1N	6	1	9	-9	0	-4	-4	i
Cc1ccsc1C(=O)C1CCCN(Cc2ccc(-n3cccn3)cc2)C1 (configuration not stated)	-8	4	-6	-5	5	12	x	i
Cc1ccc(-c2nc3ccccc3c(=O)n2-n2cccc2)cc1	7	0	-1	16	0	x	-16	i
CSc1ncc(CN2CCCC(C(=O)c3cccc(Cl)c3)C2)cn1 (configuration not stated)	-1	-2	3	-11	6	6	-18	i
O=C(CN1CCCCC1)c1ccc(OC(F)F)cc1	6	-1	2	-13	14	2	-8	i
O=C1NC(=O)N(Cc2ccco2)C(=O)/C1=C\c1cccn1CCOc1ccc(Cl)cc1	-1	-20	0	37	u	-9	x	i
COC(=O)C1=C(c2ccc(-c3ccccc3)c(F)c2)C[C@@H]2CC[C@H]1N2C(=O)NC1CC1	x	-1	-25	-7	x	15	2	x
COC(=O)C1=C(c2ccc3ccccc3c2)C[C@@H]2CC[C@H]1N2C(=O)NC(C)C	x	12	1	-7	x	-10	-10	x
COCCNC(=S)N1Cc2ccccc2-n2nncc2C1	x	1	1	x	x	-13	-23	x
COc1cccc2cc(-c3cc(=O)oc4ccc(OC(=O)N(C)C)cc34)oc12	4	1	-2	11	-4	5	-17	i
O=P1(NCc2ccco2)COc2ccccc2OC1	4	x	x	-10	-2	-30	-6	i
CC/C(=N\Nc1ccccc1)c1c(O)n(-c2ccccc2)c(=O)[nH]c1=O	1	5	10	u	-6	2	1	i
